Source: PubChem (several laboratories)
FGF22 binding – shifts melting point of recombinant human FGF22; Q9HCT0; recombinant FGF22 thermal shift, SYPRO orange fluorescence; percent of sucrose octasulfate shift, DMSO zero; calls only at 9.99 µM; hit rate 1.5% among 340,000;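 active = melting point raised past a set limit in the mean and every replicate; three in four hits are not shown here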
Target sequence (Q9HCT0 whole entry, looked up): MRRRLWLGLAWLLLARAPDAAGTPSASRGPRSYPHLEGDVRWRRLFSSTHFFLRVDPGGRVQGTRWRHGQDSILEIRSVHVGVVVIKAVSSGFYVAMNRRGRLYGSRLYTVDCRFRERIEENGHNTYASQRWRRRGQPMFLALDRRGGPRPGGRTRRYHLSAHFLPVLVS
ALR H2O2 inh – human ALR oxidase inhibition via reduced H2O2 | inhibition, % (concentration not given with the values) | purified ALR, DTT oxidation, H2O2 HRP-luminol luminescence | hit rate 3.8% among 290,000;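 active = mean and each replicate at 75% or more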;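 also: stock transfer was 7.5 nL into about 7.5 µL; 0% = neutral wells and 100% = wells with inactivated enzyme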
Target sequence (P55789 whole entry, looked up): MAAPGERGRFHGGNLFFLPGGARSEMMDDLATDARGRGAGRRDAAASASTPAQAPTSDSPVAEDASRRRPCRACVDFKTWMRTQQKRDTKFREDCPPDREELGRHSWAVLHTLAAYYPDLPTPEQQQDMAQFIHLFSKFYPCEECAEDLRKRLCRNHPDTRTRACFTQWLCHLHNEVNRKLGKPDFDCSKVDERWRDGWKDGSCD
B2AR ag – agonists of human beta-2 adrenergic receptor inducing internalization; Am2.2-beta2AR cells, FAP receptor internalization, flow cytometry; reference of the scale not given here; P07550; response, % (test concentration not listed); hit rate 0.43% among 340,000;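 active = response above a set limit, near 3 SD of response in nonfluorescent compounds, cut at about 42% in these data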;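 also: stock transfer was 100 nL into about 11 µL; a reference agonist was the positive control; negative values mostly stem from fluorescent compounds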
Target sequence (P07550 whole entry, looked up): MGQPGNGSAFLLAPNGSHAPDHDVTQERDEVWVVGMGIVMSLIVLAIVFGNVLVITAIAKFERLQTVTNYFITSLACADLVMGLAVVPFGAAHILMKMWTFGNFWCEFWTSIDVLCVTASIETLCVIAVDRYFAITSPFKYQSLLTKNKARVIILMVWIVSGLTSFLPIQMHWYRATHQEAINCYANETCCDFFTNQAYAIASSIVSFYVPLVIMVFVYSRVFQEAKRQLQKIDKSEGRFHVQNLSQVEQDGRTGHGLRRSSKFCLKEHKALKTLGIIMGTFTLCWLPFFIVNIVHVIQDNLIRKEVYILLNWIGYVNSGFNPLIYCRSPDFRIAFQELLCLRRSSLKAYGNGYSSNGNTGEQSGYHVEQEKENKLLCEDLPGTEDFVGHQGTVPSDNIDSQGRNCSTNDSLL
Ecoli growth – inhibitors of Escherichia coli growth | OD600, 23 h; stronger effect = lower value | OD600 absorbance (no concentration beside the values) | hit rate 0.21% among 330,000 | AID 1053175;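 active = OD600 absorbance below the run mean of sample wells minus 3.6 SD, in any replicate, cut at about 0.56 in these data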;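 also: stock transfer was 300 nL into about 60 µL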
HNF4A DNA FP – change in binding of human HNF4 alpha to DNA; P41235; HNF4a-FITC DNA binding, fluorescence polarization, 1 h; activity change, % at 10 µM; hit rate 0.3% among 360,000; AID 1224865; in the data active = activity change above about 30%, passing the limit was not always enough;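 also: controls were the assay level and a saturating level of protein; the project sought stronger binding though the title names inhibitors; some compounds called inactive have numbers as strong as hits; positive values seem to mean higher polarization but the record does not say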
Ecoli rRNA inh – inhibits bacterial ribosomal RNA function over humanized ribosomes; E. coli WT GFP vs humanized-ribosome RFP mutants, fluorescence, 24 h; stronger effect = lower value; DMSO median 0, no signal -100; GFP signal change (wild-type ribosome), % (test concentration not listed); hit rate 1.6% among 350,000; AID 720706;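 active = significant combined selectivity score with lowered wild-type GFP, culture density cut under 30%, mutant RFP and density less affected; inactive = any of these conditions unmet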; also: one replicate is shown; some compounds called inactive have numbers as strong as hits
UCH37 inh – inhibitors of human deubiquitinating enzyme UCH37 | AID 588478 | inhibition, % (test concentration not listed) | hit rate 0.33% among 330,000 | Q9Y5K5 | purified proteasome/UCH37, Ub-AMC cleavage fluorescence;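 active = mean of two replicates above 20%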;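 also: 0% = compound-free wells with enzyme and 100% = wells lacking proteasome; stock transfer was 100 nL into about 20 µL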
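Material: human UCH37 enzyme supplied as purified proteasome complex. Measure: % inhibition of Ub-AMC cleavage fluorescence. Medium: pH 7.4 Tris-HCl (50 mM) with ovalbumin, ATP-MgCl2, DTT. Times: 30 min preincubation with enzyme, 25 min cleavage at room temperature. Detection: AMC fluorescence intensity at 355/460 nm.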
Ecoli rRNA inh OD600 – second read-out of Ecoli rRNA inh, no call of its own (marks repeat the call); OD600 change, %; measured here: OD600 growth;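 optical density of the mix in the first replicate; 0 = DMSO median and -100 = no signal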
Ecoli rRNA inh RFP – also measured in Ecoli rRNA inh; calls as there; RFP signal change, %; measured here: RFP humanized mutant strains;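 first replicate; 0 = DMSO median and -100 = no signal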
* = called active by the depositor; i = inactive; . = no result given. A portion of the library. The share of hits here may be higher or lower than overall.

SMILES | FGF22 binding | ALR H2O2 inh | B2AR ag | Ecoli growth | HNF4A DNA FP | Ecoli rRNA inh | Ecoli rRNA inh OD600 | Ecoli rRNA inh RFP | UCH37 inh
CN(C(=O)CSc1nnc(-c2ccc(Cl)cc2)n1CC1CCCO1)C1CCS(=O)(=O)C1 (stereo unspecified) | i | -5 | -4 | 0.71 | 0.1 | -1 | -14 | -3.9 | 0.7
CC(=O)c1c(C)[nH]c(C(=O)OCC(=O)NCCc2ccc(Cl)cc2)c1C | . | 1 | 7 | 0.75 | 1.3 | . | . | . | 1.5
Cc1cc(S(=O)(=O)NCC(=O)O)ccc1F | . | -11 | -2 | 0.68 | 1.0 | . | . | . | 4.3
CS(=O)(=O)c1cccc(C(=O)NC(c2ccccc2)c2ccccc2)c1 | . | 2 | -2 | 0.72 | -1.0 | . | . | . | 3.0
CCOC(=O)NN1C(=O)c2ccccc2NC1c1cccs1 (stereo unspecified) | i | -3 | 1 | 0.66 | -2.4 | 4 | 11 | 1.1 | -337
COc1ccc(C(=O)N2CCCC(N3CCN(c4ccccc4F)CC3)C2)c(OC)n1 (stereo unspecified) | i | 4 | -1 | 0.64 | 0.2 | 1 | -7 | -1.2 | -0.3
Cc1ccc(S(=O)(=O)N2CCN(C(=O)COC(=O)CNC(=O)c3ccc(C(C)(C)C)cc3)CC2)c(C)c1 | i | -9 | 4 | 0.67 | 4.2 | -6 | -22 | 1.5 | 1.4
Cc1cc(-n2cnnn2)cc(C)c1S(=O)(=O)NCCOc1ccccc1 | i | -14 | -13 | 0.71 | 0.8 | 1 | 2 | 1.2 | 2.6
O=C(O)c1cccc(Nc2c3ccccc3nc3ccccc23)c1 | i | -3 | 1 | 0.65 | 6.2 | -6 | -12 | 11 | -92
CC(=O)N1N=C(c2ccc(Cl)cc2)OC1c1ccc(C(C)C)cc1 (stereo unspecified) | . | 4 | -1 | 0.71 | -1.0 | . | . | . | 0.1
COCCn1c(=O)[nH]c2cc(C(=O)Nc3cccc(C(C)=O)c3)ccc2c1=O | . | 1 | 3 | 0.71 | -0.8 | . | . | . | 2.5
O=C1C2C3C=CC(CC3)C2C(=O)N1/N=C/c1ccc(O)cc1 (stereo unspecified) | i | 6 | 1 | . | 2.2 | -2 | 2 | -0.8 | .
COC(=O)c1cc(-c2ccc(Br)cc2)c2c(=O)[nH]c(=O)n(C)c2n1 | i | -3 | 15 | 0.69 | -0.8 | -1 | -4 | 1.0 | -65
O=C(NCCc1ccccc1)C(=O)c1cn(CC(=O)N2CCCC2)c2ccccc12 | i | -8 | -12 | 0.69 | -4.0 | -2 | 3 | 2.9 | 4.3
Cc1nc(SCC(N)=O)[nH]c(=O)c1Cc1ccc(OC(C)C)cc1 | . | -10 | 7 | 0.75 | 2.5 | . | . | . | 0.2
O=C(CCS(=O)(=O)c1ccc(Br)cc1)NCc1ccco1 | i | -6 | -1 | 0.69 | -8.0 | 3 | 5 | -0.7 | 6.7
COC(=O)c1cccc(C23CC4(C2)[C@H](CN(Cc2ccc(-c5ccccc5)cc2)[C@@H]4c2ccccc2)C3c2ccccc2)c1 (stereo partly specified) | i | -6 | 2 | . | 14 | 8 | 10 | 7.7 | -1.1
COc1ccc(C(=O)CCC(=O)N2CCN(c3ccccc3)CC2)cc1 | i | . | 0 | 0.71 | -0.6 | -7 | -9 | 2.8 | 5.8
CCCOc1ccc(C(=O)Nc2ccc3c(c2)OCCO3)cc1 | i | -3 | 3 | 0.72 | 1.7 | -5 | 6 | -2.9 | 3.9
COc1ccc2c(c1)CCC1(C)CC(=O)C(Br)=C21 (stereo unspecified) | i | . | . | . | 0.6 | -50 | -74 | -17 | .
O=C(NC(=O)N1CCN(c2ccccc2F)CC1)c1ccccc1 | i | 2 | -11 | 0.7 | -3.5 | 10 | 3 | 0.1 | 0.6
CC(C)c1ccc(OCC(O)CNC(C)c2ccccc2)cc1 (stereo unspecified) | i | -2 | 32 | 0.64 | -1.0 | -42 | -63 | 18 | 6.8
COc1cc(/C=C/C(=O)O)ccc1O | i | 87* | 3 | 0.77 | 2.9 | . | . | . | -1.9
CN(C)/C=C/C1=CC(=O)CC(C)(C)C1 | i | -9 | -2 | 0.66 | -4.9 | 14 | 7 | 1.2 | 1.5
CCOC(=O)c1sc(=S)n(-c2cccc(C(F)(F)F)c2)c1SC | . | 7 | -19 | 0.66 | -2.7 | -1 | 8 | 7.5 | 2.1
SMILES | FGF22 binding | ALR H2O2 inh | B2AR ag | Ecoli growth | HNF4A DNA FP | Ecoli rRNA inh | Ecoli rRNA inh OD600 | Ecoli rRNA inh RFP | UCH37 inh
[O-]/C(=C(\C(=S)Nc1cccc2ccccc12)[n+]1ccccc1)c1ccc2c(c1)OCCO2 | . | . | 10 | 0.71 | 3.5 | . | . | . | 3.5
CC12CCC(=O)N1C(C(=O)Nc1cccc(F)c1)CS2 (stereo unspecified) | i | -1 | -10 | 0.64 | 0.3 | 1 | 5 | -4.1 | 0.7
Cc1ccc(C(=O)N/N=C\c2ccc(-c3ccc(Cl)cc3)o2)cn1 | i | 0 | 4 | . | 1.5 | 14 | 5 | 1.6 | .
COc1ccc(OC)c(NC(=O)c2cc(-c3c(C)cc(C)cc3O)n[nH]2)c1 | i | . | -6 | 0.71 | -0.9 | 4 | 15 | 2.8 | -13
O=C(NCc1ccccc1Cl)C1CCC(=O)N(CC2CCCCC2)C1 (stereo unspecified) | i | -3 | -10 | 0.73 | -2.0 | -2 | 2 | -1.0 | 0.6
C=CCNC(=S)N1CCc2c([nH]c3ccccc23)C1C (stereo unspecified) | i | . | 3 | 0.67 | 0.9 | -33* | -4.0* | -2.1* | 2.0
COc1ccc(Cc2nnc(NS(=O)(=O)Cc3ccccc3)s2)cc1 | . | -6 | 10 | 0.7 | -1.7 | . | . | . | 4.2
O=C(C[C@H]1C[C@H](C(=O)N2CCOCC2)[C@@]2(CCC3CCCC3)c3[nH]c4cc(-c5ccco5)ccc4c3CCN2C1=O)NCCc1ccccn1 | i | . | 8 | 0.69 | 5.6 | 4 | 10 | 19 | -26
COc1ccc(NC(=O)CSc2ccc3nnc(CCNC(=O)c4ccccc4)n3n2)cc1 | i | -4 | 0 | 0.7 | 1.1 | -3 | 0 | -0.3 | 4.6
Cc1cc(C(=O)Nc2ncn(Cc3ccc(F)cc3)n2)ccc1[N+](=O)[O-] | i | 1 | 2 | 0.65 | -2.4 | 4 | -1 | -1.5 | 1.4
O=C1CC(Nc2ccccc2)C(=O)N1Cc1ccccc1 (stereo unspecified) | . | 19 | -5 | 0.72 | 4.4 | . | . | . | 0.0
CC(=O)c1ccc(NC(=O)Nc2ccc([N+](=O)[O-])cc2)cc1 | i | -11 | 5 | 0.49 | -4.7 | 5 | 15 | 1.8 | 5.6
Cc1ccccc1NC(=O)CCCNC(=O)c1ccc(Cl)cc1 | i | -4 | 11 | 0.67 | 0.2 | 6 | 12 | -0.2 | 0.2
CN(Cc1ccccc1)C(=O)CN(c1ccccc1Cl)S(C)(=O)=O | i | -1 | -2 | 0.63 | -1.5 | -4 | 7 | -2.5 | 0.3
c1ccc2c(c1)-c1nc3ccccc3cc1C2N1CCCCC1 (stereo unspecified) | i | . | . | . | -1.1 | -17 | -61 | -7.6 | .
Cc1ccc(C2(C)NC(=O)N(CC(=O)N3c4ccccc4NC(=O)CC3C)C2=O)cc1 (stereo unspecified) | i | -1 | 2 | 0.69 | -0.1 | 6 | 4 | 3.1 | 5.5
Cc1nnc(OCc2nc3ccccc3n2C)c2ccccc12 | . | 2 | -6 | 0.73 | -2.1 | . | . | . | 5.0
CCNC(=O)CC1C(=O)N(c2ccc(OC)cc2)C(=O)N1Cc1ccc(OC)cc1 (stereo unspecified) | . | -4 | 3 | 0.75 | 2.1 | . | . | . | 0.7
CCC(C)(C)n1nnnc1C(c1ccc(N(C)C)cc1)N1CCN(C2CCCCC2)CC1 (stereo unspecified) | . | . | -10 | 0.71 | 1.1 | . | . | . | 3.2
O=S(=O)(/N=C(/Nc1nc2ccccc2s1)c1ccccc1)c1ccc(F)cc1 | . | . | 8 | 0.71 | -0.8 | 0 | -3 | 0.0 | 5.2
COc1cccc(C(=O)N2CCCN(C)CC2)c1OC | i | -13 | -3 | 0.66 | -3.4 | 7 | 3 | 2.8 | 0.2
CCn1c(CCNC(=O)c2ccc(C)cc2)nnc1SCc1ccc(Cl)c(Cl)c1 | . | -17 | -19 | 0.74 | -2.9 | . | . | . | 6.2
N#CNC1=NCN(CCc2ccccc2)CN1 | . | -2 | -1 | 0.67 | -5.2 | . | . | . | 1.3
O=C(CN1CCN(Cc2ccccc2)CC1)Nc1cccc(Br)c1 | i | . | 0 | 0.65 | -0.7 | -4 | -3 | 1.6 | 5.6
CCC(C)(NC(=O)c1ccc2c(c1)OCO2)C(=O)NC1CCCCC1 (stereo unspecified) | i | . | 4 | 0.66 | -0.1 | 9 | 7 | -1.1 | 6.3
SMILES | FGF22 binding | ALR H2O2 inh | B2AR ag | Ecoli growth | HNF4A DNA FP | Ecoli rRNA inh | Ecoli rRNA inh OD600 | Ecoli rRNA inh RFP | UCH37 inh
COc1ccc(C2SCCN2C(=S)Nc2cccc(Cl)c2)cc1 (stereo unspecified) | . | 0 | 6 | 0.62 | 1.9 | . | . | . | 0.2
CC1=NN(C(N)=S)C(=O)C1N=Nc1cccc([N+](=O)[O-])c1 (stereo unspecified) | i | 5 | 1 | 0.69 | -0.5 | 10 | 12 | -3.8 | 11
Cc1cc(N2CCOCC2)cc(C)[n+]1[O-] | . | 2 | 1 | 0.66 | -0.5 | . | . | . | 0.6
O=c1n(Cc2ccccc2)nc2n1-c1ccccc1SC2 | i | 8 | 4 | 0.69 | 1.7 | . | . | . | 2.8
COc1cccc(S(=O)(=O)NCc2ccc(C(=O)Nc3ccc(Cl)cc3)cc2)c1 | i | -7 | -1 | 0.68 | 2.4 | -7 | -2 | 1.1 | 4.9
O=c1oc2ccccc2n1Cc1ccccc1F | i | -5 | 5 | 0.6 | 3.4 | -25 | -16 | -13 | 2.1
CCCN1CCN(CCCNC(=O)CCNC(=O)Cn2ccc3ccccc3c2=O)CC1 | . | -9 | 5 | 0.62 | -1.1 | . | . | . | 0.8
CC(NC(=O)C1CCN(S(=O)(=O)c2ccc(Br)s2)CC1)c1ccccc1 (stereo unspecified) | i | -2 | -4 | 0.67 | -0.9 | 13 | 18 | 0.4 | 1.7
O=C(c1ccc(Cl)cc1)N1CCC(C(=O)N2CCN(c3ncccn3)CC2)CC1 | i | -25 | -4 | 0.72 | 2.4 | 4 | 7 | 0.8 | -2.0
O=c1c2ccccc2nc2n1CCCS2 | i | -3 | -9 | 0.66 | -6.0 | 4 | 8 | -4.6 | 1.3
CCOC(=O)c1c(NC(=O)CSc2n[nH]c(-c3ccco3)n2)sc(C)c1C | . | 1 | -4 | 0.69 | 1.4 | . | . | . | 1.9
Cc1ccc(/C=C2/SC(=O)N(CC(=O)N3CCOCC3)C2=O)s1 | i | -10 | 7 | 0.68 | 26 | 6 | 4 | -0.1 | 9.8

Single records, from the list above. Values in the order: FGF22 binding | ALR H2O2 inh | B2AR ag | Ecoli growth | HNF4A DNA FP | Ecoli rRNA inh | Ecoli rRNA inh OD600 | Ecoli rRNA inh RFP | UCH37 inh
O=c1n(Cc2ccccc2)nc2n1-c1ccccc1SC2 as listed: i | 8 | 4 | 0.69 | 1.7 | . | . | . | 2.8
CS(=O)(=O)c1cccc(C(=O)NC(c2ccccc2)c2ccccc2)c1 as listed: . | 2 | -2 | 0.72 | -1.0 | . | . | . | 3.0
CC(=O)c1c(C)[nH]c(C(=O)OCC(=O)NCCc2ccc(Cl)cc2)c1C as listed: . | 1 | 7 | 0.75 | 1.3 | . | . | . | 1.5
